Screens deposited in PubChem BioAssay by National Center for Advancing Translational Sciences (NCATS).
TRPV1 PAM: enhances activation of the human vanilloid receptor TRPV1; hit rate 0.02% among 320,000; Q8NER1; TRPV1-expressing cells, Fluo-8 calcium influx, capsaicin EC20 potentiation; host cell line not named in the record; control for the full effect not named in the record; potentiation, % at 8.33 µM; AID 540277; active means potentiation above 80%; inconclusive means 30% to 80%; inactive means below 30%; further: 0% is about no effect
Target sequence (Q8NER1 whole entry, looked up): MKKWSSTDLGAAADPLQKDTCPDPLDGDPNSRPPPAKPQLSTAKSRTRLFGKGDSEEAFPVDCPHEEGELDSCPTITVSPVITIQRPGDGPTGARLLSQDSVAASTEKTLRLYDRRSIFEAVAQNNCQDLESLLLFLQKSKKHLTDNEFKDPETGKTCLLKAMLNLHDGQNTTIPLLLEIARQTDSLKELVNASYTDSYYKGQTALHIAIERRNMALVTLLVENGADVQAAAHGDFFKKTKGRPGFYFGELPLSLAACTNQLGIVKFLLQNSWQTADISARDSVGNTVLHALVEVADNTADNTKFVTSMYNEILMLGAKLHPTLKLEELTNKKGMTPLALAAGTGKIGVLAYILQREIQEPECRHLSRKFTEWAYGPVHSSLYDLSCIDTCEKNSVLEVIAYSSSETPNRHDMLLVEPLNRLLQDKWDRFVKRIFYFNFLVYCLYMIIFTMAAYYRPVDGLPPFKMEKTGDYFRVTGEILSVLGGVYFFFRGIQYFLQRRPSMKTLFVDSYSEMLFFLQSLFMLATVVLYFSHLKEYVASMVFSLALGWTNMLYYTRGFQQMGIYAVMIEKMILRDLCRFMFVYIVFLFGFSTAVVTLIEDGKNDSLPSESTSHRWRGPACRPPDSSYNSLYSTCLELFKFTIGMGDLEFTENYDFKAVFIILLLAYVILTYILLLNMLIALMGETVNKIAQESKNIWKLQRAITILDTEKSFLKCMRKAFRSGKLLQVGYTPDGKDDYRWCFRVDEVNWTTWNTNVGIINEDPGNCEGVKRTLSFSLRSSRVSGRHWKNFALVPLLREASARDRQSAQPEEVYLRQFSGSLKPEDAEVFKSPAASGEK
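TRPV1-expressing cells were cultured overnight at 35.5C and loaded with Fluo-8 calcium dye for 40 to 90 min at room temperature. After a 10 s baseline, compound was added and calcium influx was read kinetically for 3 min (ex 480/em 520 nm).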
TRPML1 blocker: blocks the human TRPML1 channel; Q9GZU1; TRPML1-inducible cells, Ca2+ dye fluorescence, FDSS; stronger effect = lower value; inhibition of EC80 agonist-evoked calcium signal; activity change, negative = inhibition, % (concentration not given with the values); hit rate 0.02% among 390,000; AID 624415; in the data active means activity change below about -50%; inconclusive means about -30% to -50%; inactive means above about -30%;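 further: stimulus is agonist 54-4 at its EC80 concentration; on the % scale 0 is the no-effect control and ±100 the full control effect; compound concentration not given in the record; the text of the record puts the active cut at -80%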
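TRPML1-DL cells, Tet-induced overnight (~16 h, 37 °C) at 1,500 cells/well, were loaded with Ca8 no-wash dye plus quencher for 45-90 min at room temperature. Compounds were pinned during FDSS kinetic reading; agonist 54-4 at EC80 (4 uM final) then added.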
Menin-MLL FL inh: menin-MLL binding inhibition, fluorescein peptide | AID 1766 | Fluorescence polarization, fluorescein-MLL peptide displacement from menin | FP activity change, % at 61.4 µM | 290,000 tested, under 10 active; inconclusive = falling polarisation curve, or a change in total fluorescence; inactive = total fluorescence flat and polarisation flat or rising; no compound was filed as active; the % refers to the polarisation; negative = inhibition;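 further: % of control where 0% means no effect; inhibitors lower the polarisation; unlabelled MLL peptide was the positive control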
Sfp PPTase inh: blocks B. subtilis Sfp PPTase activity | AID 1490 | Q9F4F7 | hit rate 3.5% among 310,000 | Potency, µM, for inactives: max response, negative = inhibition, actives largely listed as inhibitors | Biochemical Sfp PPTase activity, qHTS; active means well fitted inhibition curve with a large enough effect; inconclusive means small, poorly fitted or top-dose-only effect, or another doubt; inactive means no such curve, though single readings can be large or run the other way;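 further: the enzyme is Sfp with the accession as filed and its product quenches rhodamine fluorescence; potency means the concentration at half of the fitted maximal effect; 0% = enzyme reaction without inhibitor and -100% = no enzyme wells; top concentration of the series not given in the record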
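With Hepes-Na pH 7.6 buffer containing 10 mM MgCl2, Sfp (15 nM) modified BHQ-2-YbbR (12.5 uM) using rhodamine-CoA (5 uM). Two reads 30 minutes apart at 525/598 nm yielded each well's rate.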
gsp ag: activates gsp, the McCune-Albright syndrome mutation. gsp mutant cells, cAMP HTRF, 30 min; control for the full effect not named in the record. Potency, µM (titrated, usually from 76.9 µM), for inactives: top-dose activation (cAMP increase), actives largely listed as activators. hit rate 0.13% among 340,000. AID 624287; active = well fitted activation curve with a large enough effect; inconclusive = small, poorly fitted or top-dose-only effect, or another doubt; inactive = no such curve, though single readings can be large or run the other way; cell line not stated here;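 further: phosphodiesterase inhibitor Ro 20-1724 added with compounds to block cAMP breakdown; potency means the concentration at half of the fitted maximal effect; nearly all actives have a fitted effect of over 60% in size; about a fifth of the inactives were tested at one dose only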
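Cells in DMEM/10% FBS with G418 were pretreated with compounds in DMSO plus […] (300 uM stock) for 30 min at 37C. cAMP was measured by HTRF (cAMP-d2 plus anti-cAMP antibody-K) after 30 min at room temperature.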
ClpP mod: qHTS Assay for Activators of ClpP | hit rate 1.9% among 340,000 | Potency, µM (series often up to 57.5 µM), without a hit: top-dose activity change, negative = active | purified B. subtilis ClpP, FRET peptide cleavage, 20 min | ATP-dependent Clp protease proteolytic subunit (Bacillus subtilis (strain 168)), P80244; active = well fitted falling curve with a large enough effect; inconclusive = small, poorly fitted or top-dose-only effect; inactive = no such curve, though single readings can be large or run the other way; further: potency means the concentration at half of the fitted maximal effect; the source files actives as falling curves though it sought activators and does not explain the sign; nearly all actives have a fitted effect of over 65% in size; many hits overshoot -100%
Target sequence (P80244 whole entry, looked up): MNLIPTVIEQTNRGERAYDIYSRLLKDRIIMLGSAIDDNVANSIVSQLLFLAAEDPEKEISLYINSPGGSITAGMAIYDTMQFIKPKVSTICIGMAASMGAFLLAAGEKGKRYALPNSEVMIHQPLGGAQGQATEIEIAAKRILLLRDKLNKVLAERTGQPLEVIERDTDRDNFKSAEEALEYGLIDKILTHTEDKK
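Purified B. subtilis ClpP, 10 microg/mL final in Tris/HCl pH8 with KCl, BSA, glycerol and Tween-20, cleaved an Abz/nitrotyrosine-quenched decapeptide. Fluorescence (ex 320, em 430) was read at 0 and 20 min at room temperature. Delta was normalized to 5.8 microM ADEP and DMSO/no-enzyme controls.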
gsp antag: antagonists of gsp mutant (McCune-Albright syndrome); Potency, µM (series often up to 76.9 µM), for inactives: at the highest dose activity change, negative = inhibition, hits mostly inhibitors; gsp-mutant cells, cAMP HTRF, 30 min; control for the full effect not named in the record; AID 624288; hit rate 0.4% among 340,000; active = falling curve of any shape with a large fitted effect; inconclusive = falling curve, mostly with a smaller effect; inactive = flat or rising curve; cell line not stated here;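 further: intracellular cAMP measured with PDE inhibitor Ro 20-1724 present during compound exposure; potency means the concentration at half of the fitted maximal effect; on the % scale 0 is the no-effect control and ±100 the full control effect; nearly all actives have a fitted effect of over 65% in size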
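G418-selected cells were plated in DMEM/10% FBS for 16-24 h at 37C, then treated with compounds plus the PDE inhibitor […] (300 uM solution added) for 30 min at 37C. Intracellular cAMP was measured by HTRF after 30 min lysis at room temperature.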
Active calls of the source: *; ? = inconclusive; / = no result given; & = joins results of further samples; [ ] = dose if it differs, or a comment.

SMILES	TRPV1 PAM	TRPML1 blocker	Menin-MLL FL inh	Sfp PPTase inh	gsp ag	ClpP mod	gsp antag
O=[N+]([O-])c1cc(S(=O)(=O)Oc2ccccc2)ccc1Cl	/	-7	/	/	-10%	35µM*	23%
CC/C(=N\NC(=S)NC(C)C)c1ccc(OC)c(OC)c1	-4	5	-2.1	-18%	0%	/	-2%
Cc1c(C(=O)N/N=C/c2ccccc2)[nH]c2c([N+](=O)[O-])cccc12	-27	-11	-1.1	8%	16%[15.4 µM]	/	10%
CSc1n[nH]c2nc3c(c(=O)n12)C1(CCCC1)Cc1ccccc1-3	-1	2	-0.4	17%	?	28µM*	-17%
C#CC[N+]1(CC#Cc2ccccc2)CCCCC1	8	7	-5.8	20%	9%[15.4 µM]	/	/
Cc1ccc(C2(CC(=O)N3CCCC3)CCOC(C(C)C)C2)cc1 (stereo not given)	-24	-15	5.1	-9%	13%	0.4%	-3%
COc1cc(C(=O)N2CCC3(CC2)NCCc2[nH]cnc23)cc(OC)c1OC	-3	-14	/	-1%	-26%	-0.7%	12%
CC(=O)NC(Cc1cccc(F)c1)C(=O)NC1CCN(c2nnnn2-c2ccccc2)CC1 (stereo not given)	6	17	0.5	17%	14%	-1.4%	4%
COc1ccc(-c2cc(C(=O)N3CCCCCC3)c3ccccc3n2)c(OC)c1	-1	14	4.7	40µM*	-4%	3.2%	-21%
COc1ccccc1NS(=O)(=O)c1ccc(C(=O)N2CCCC(C)C2)cc1 (stereo not given)	7	0	/	13%	-18%	1.2%	-4%
O=C(Nc1ccc(S(=O)(=O)NC2=NCCCCC2)cc1)c1cccc(OC(F)F)c1	/	10	/	/	28%	0.3%	/
COC(=O)c1sc(-c2ccc(C(C)(C)C)cc2)cc1NC(=O)CCC(=O)O	-6	10	0.2	-8%	?	4.0%	?
COc1ccc(N2CCN(Cc3nnc(-c4ccccc4)o3)CC2)cc1	-15	-25	0.0	3%	-2%	0.6%	3%
CCn1c(=S)sc2c(=O)n(CC(=O)Nc3ccccc3)c(C)nc21	-2	-8	3.0	7%	-25%	-0.3%	-25%
COC(=O)[C@@H]1CC[C@H](C)[C@@H](c2ccc(C)cc2)N1C(=O)c1ccc(/C=N/OC[C@@H](O)COCc2ccco2)cc1	8	/	-1.9	-27%	/	/	/
O=c1c(Cl)c(Cl)cnn1Cc1ccccc1Cl	4	-15	2.9	-13%	-29%	0.3%	-6%
CN(C(=O)COC(=O)c1n[nH]c2ccccc12)C1CCS(=O)(=O)C1 (stereo not given)	-6	-3	3.7	25%	20%	-3.1%	-6%
COc1ccc2cc(-c3[nH]ncc3CN3CCCC3c3nonc3C)ccc2c1 (stereo not given)	2	-19	9.0	5%	-6%	-9.6%	-16%
CC(C)CC1C(C#N)=C(N)SC(N)=C1C#N	?	-4	?	?	?	-13%	-1%
O=C(/C=C/c1cc(Br)ccc1F)Nc1cccnc1	8	5	-4.4	1%	-2%	/	-12%
CCCCN1C(=O)C(CC(=O)NCc2cccc3ccccc23)CC(C(=O)N2CCOCC2)=C1C (stereo not given)	/	-7	/	/	4%	-2.5%	/
COCCn1c(=O)c2c(nc3n2CCCN3Cc2ccccc2)n(C)c1=O	-14	-2	-3.5	9%	-26%	/	-7%
N#Cc1ccccc1N1CCN(C(=O)c2ccc(NC(=O)c3ccc(Br)o3)cc2)CC1	?	-12	/	/	/	-10%	-6%
COc1cccc(N/C=C/C(=O)c2ccc(Cl)cc2)c1	-1	-2	8.6	-29%	-19%[15.4 µM]	0.3%	9%
COc1ccc(C)cc1NC(=O)CN(C)S(=O)(=O)c1ccc2c(c1)CC(C)N2C(C)=O (stereo not given)	17	15	/	7%	-5%	0.7%	-26%
Cn1cnc([N+](=O)[O-])c1NC(C)(C)C	-8	0	1.7	11%	?	-0.5%	8%
Cc1c(Br)c([N+](=O)[O-])nn1CC(=O)Nc1sc2c(c1C(=O)OC(C)C)CCCC2	1	17	-1.1	-7%	5%	-0.3%	1%
CCSc1nnc(-c2ccc(Cl)cc2Cl)o1	-11	-10	0.5	-25%	-9%	-7.0%	-11%
COc1cc2ccccc2cc1C(=O)NC1CCCCC1	3	7	/	/	-3%	4.2%	-3%
CCN1C(=O)CCCc2ccccc21	-2	3	-1.1	6%	-33%[inhibitor]	/	11%
CC(C)(C)CC(=O)O/N=C(\N)c1ccncc1	-6	-17	-1.9	18%	-5%[15.4 µM]	/	20%
Cc1cc(C)cc(C(=O)N(Cc2ccco2)c2c(N)n(Cc3ccccc3)c(=O)[nH]c2=O)c1	-1	21	/	/	-10%	10µM*	1%
C[C@H]1CN([C@@H](C)CO)C(=O)c2cccc(NC(=O)C3CC3)c2O[C@H]1CN(C)C(=O)Nc1ccc2c(c1)OCO2	/	-4	/	/	/	2.0%	7%
CCOC(=O)N1CCN(C(=O)c2cc3c(ccc4ccccc43)oc2=O)CC1	27	-8	0.9	22%	-21%	?	-1%
COc1ccc(NCc2cccnc2)cc1	-11	-7	-3.5	4%	-28%	/	-1%
COC(=O)[C@@]1(Cc2ccc(F)cc2)[C@H]2c3cc(C(=O)N(C)C)n(Cc4nc5ccccc5[nH]4)c3C[C@H]2CN1C(=O)c1ccccc1	1	1	?	-4%&13%	/	-28%	?
NNC(=O)c1cc(O)c(O)c(O)c1	4	13	-0.7	32µM*	17%[15.4 µM]	/	8%
C=CCC(NCc1ccccc1)c1ccco1 (stereo not given)	2	14	-1.9	12%	?	-1.9%	8%
CCS(=O)(=O)C1C(=O)N(C)C(S(=O)(=O)CC)C(=O)N1C (stereo not given)	/	-2	/	/	?	1.2%	/
Nn1c(SCC(=O)NCCN2C(=O)CSC2=O)nnc1-c1ccc(OC(F)F)cc1	-5	1	/	/	26%	0.9%	-3%

In a second layout: entries from further up.
mol | TRPV1 PAM | TRPML1 blocker | Menin-MLL FL inh | Sfp PPTase inh | gsp ag | ClpP mod | gsp antag
O=[N+]([O-])c1cc(S(=O)(=O)Oc2ccccc2)ccc1Cl | / | -7 | / | / | -10% | 35µM* | 23%
CC/C(=N\NC(=S)NC(C)C)c1ccc(OC)c(OC)c1 | -4 | 5 | -2.1 | -18% | 0% | / | -2%
Cc1c(C(=O)N/N=C/c2ccccc2)[nH]c2c([N+](=O)[O-])cccc12 | -27 | -11 | -1.1 | 8% | 16%[15.4 µM] | / | 10%
CSc1n[nH]c2nc3c(c(=O)n12)C1(CCCC1)Cc1ccccc1-3 | -1 | 2 | -0.4 | 17% | ? | 28µM* | -17%
C#CC[N+]1(CC#Cc2ccccc2)CCCCC1 | 8 | 7 | -5.8 | 20% | 9%[15.4 µM] | / | /
Cc1ccc(C2(CC(=O)N3CCCC3)CCOC(C(C)C)C2)cc1 (stereo not given) | -24 | -15 | 5.1 | -9% | 13% | 0.4% | -3%
COc1cc(C(=O)N2CCC3(CC2)NCCc2[nH]cnc23)cc(OC)c1OC | -3 | -14 | / | -1% | -26% | -0.7% | 12%
CC(=O)NC(Cc1cccc(F)c1)C(=O)NC1CCN(c2nnnn2-c2ccccc2)CC1 (stereo not given) | 6 | 17 | 0.5 | 17% | 14% | -1.4% | 4%
COc1ccc(-c2cc(C(=O)N3CCCCCC3)c3ccccc3n2)c(OC)c1 | -1 | 14 | 4.7 | 40µM* | -4% | 3.2% | -21%
COc1ccccc1NS(=O)(=O)c1ccc(C(=O)N2CCCC(C)C2)cc1 (stereo not given) | 7 | 0 | / | 13% | -18% | 1.2% | -4%

More compounds follow:
SMILES	TRPV1 PAM	TRPML1 blocker	Menin-MLL FL inh	Sfp PPTase inh	gsp ag	ClpP mod	gsp antag
COc1ccc(N2C(=NC(=O)CCCc3ccccc3)SC3CS(=O)(=O)CC32)cc1 (stereo not given)	6	70	0.5	-6%	0%	-3.0%	-3%
CCOC(=O)N1CCC(Nc2ncnc3c2cnn3-c2ccc(C)cc2C)CC1	-18	10	5.4	16%	?	-20%	?
CCOC(=O)/C=C1/SCC(=O)N1Cc1ccc(Br)cc1	/	1	/	/	25%	/	-16%
CC1CCC/C(=C(\C#N)c2nc(-c3cc4ccccc4oc3=O)cs2)C1 (stereo not given)	4	-10	2.9	-17%	-13%	?	-11%
CCCCC(CC)Cn1c(N)c(C#N)c2nc3ccccc3nc21 (stereo not given)	-4	24	16	11%	?	32µM*	0%
Cn1c(NC(=O)c2ccc(Cl)s2)cc(=O)n(C)c1=O	1	6	1.9	4%	3%	-1.2%	4%
CCCC(C)Sc1nc2c([nH]1)c(=S)n(C)c(=O)n2C (stereo not given)	/	1	/	/	-11%	-2.4%	-14%
O=S(=O)(NC1CC1)c1ccc(Cl)cc1F	4	8	2.0	23%	-2%[15.4 µM]	/	8%
CC(CCc1ccc(O)cc1)NC(c1ccccc1)c1ccc(Cl)cc1 (stereo not given)	16	-8	-6.5	7%	26%	/	6%
N#C/C(=C\c1ccccc1)C(=O)N1CCC(C(N)=O)CC1	11	-9	-0.1	18%	1%	/	8%
Cc1ccc(NC(=O)C2CCN(S(=O)(=O)c3ccc4c(c3)OCCCO4)CC2)nc1	13	-17	/	/	22%[15.4 µM]	-0.3%	-14%
O=C(NCCc1cccnc1)C1CCC(=O)N(CCc2cccc(F)c2)C1 (stereo not given)	16	-1	/	8%	-10%	-3.4%	-2%
Cc1cccc(C(=O)NCCc2n[nH]c(=S)n2C)c1	-1	8	2.8	?	13%	-0.7%	6%
